ClpP mod: qHTS Assay for Activators of ClpP. ATP-dependent Clp protease proteolytic subunit (Bacillus subtilis (strain 168)), P80244. purified B. subtilis ClpP, FRET peptide cleavage, 20 min. Potency, µM (doses to about 57.5 µM), for the others: at the highest dose activity change, negative = active. 340,000 tested, 1.9% active; active = well fitted falling curve with a large enough effect; inconclusive = small, poorly fitted or top-dose-only effect; inactive = no such curve, though single readings can be large or run the other way; note: potency is the fitted concentration of half-maximal effect; the source files actives as falling curves though it sought activators and does not explain the sign; nearly all actives have a fitted effect of over 65% in size; many hits overshoot -100%
Target sequence (P80244 whole entry, looked up): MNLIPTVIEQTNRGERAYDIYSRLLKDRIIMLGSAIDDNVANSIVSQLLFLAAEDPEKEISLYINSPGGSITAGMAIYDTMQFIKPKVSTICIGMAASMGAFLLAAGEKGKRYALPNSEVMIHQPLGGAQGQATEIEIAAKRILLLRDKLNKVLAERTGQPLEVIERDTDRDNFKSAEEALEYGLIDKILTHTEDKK
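Purified B. subtilis ClpP, 10 microg/mL final in Tris/HCl pH8 with KCl, BSA, glycerol and Tween-20, cleaved an Abz/nitrotyrosine-quenched decapeptide. Fluorescence (ex 320, em 430) was read at 0 and 20 min at room temperature. Delta was normalized to 5.8 microM ADEP and DMSO/no-enzyme controls.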
gsp agonist: qHTS for Agonist of gsp, the Etiologic Mutation Responsible for Fibrous Dysplasia/McCune-Albright Syndrome: qHTS; gsp mutant cells, cAMP HTRF, 30 min; control for the full effect not named in the record; Potency, µM (titrated, usually from 76.9 µM), inactives show at the highest dose activation (cAMP increase), most hits filed as activators; 340,000 tested, 0.13% active; active = well fitted activation curve with a large enough effect; inconclusive = small, poorly fitted or top-dose-only effect, or another doubt; inactive = no such curve, though single readings can be large or run the other way; cell line not stated here;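 note: phosphodiesterase inhibitor Ro 20-1724 added with compounds to block cAMP breakdown; potency is the fitted concentration of half-maximal effect; nearly all actives have a fitted effect of over 60% in size; about a fifth of the inactives were tested at one dose only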
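Cells stably selected in G418 were plated at 2000/well, grown 16-24 hr, then given compounds in DMSO with the PDE inhibitor […] (300 uM solution added) for 30 min at 37C; cAMP was read by HTRF.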
Menin MLL FP FL: qHTS Assay for Inhibitors Targeting the Menin-MLL Interaction in MLL Related Leukemias: Competition With Fluorescein Labeled MLL-derived Peptide. 290,000 tested, under 10 active. FP activity change, % at 61.4 µM. Fluorescence polarization, fluorescein-MLL peptide displacement from menin; inconclusive = falling polarisation curve, or a change in total fluorescence; inactive = total fluorescence flat and polarisation flat or rising; no compound was filed as active; the % refers to the polarisation; negative = inhibition;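 note: % of control where 0% means no effect; inhibitors lower the polarisation; unlabelled MLL peptide was the positive control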
gsp antagonist: qHTS for Antagonists of gsp, the Etiologic Mutation Responsible for Fibrous Dysplasia/McCune-Albright Syndrome: qHTS. gsp-mutant cells, cAMP HTRF, 30 min; control for the full effect not named in the record. Potency, µM (series often up to 76.9 µM), for the others: at the top dose activity change, negative = inhibition, hits mostly inhibitors. 340,000 tested, 0.4% active. AID 624288, 2012; active = falling curve of any shape with a large fitted effect; inconclusive = falling curve, mostly with a smaller effect; inactive = flat or rising curve; cell line not stated here;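 note: intracellular cAMP measured with PDE inhibitor Ro 20-1724 present during compound exposure; potency is the fitted concentration of half-maximal effect; % is set by controls: 0 for no effect and ±100 for the full control effect; nearly all actives have a fitted effect of over 65% in size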
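HTRF cAMP read-out (cAMP-d2 plus anti-cAMP antibody-K in lysis buffer, 30 min RT). Before lysis, cells are exposed to compounds with […] for 30 min at 37C in DPBS containing Ca/Mg, BSA and Tween 20.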
Sfp inh: qHTS Assay for Inhibitors of Bacillus subtilis Sfp phosphopantetheinyl transferase (PPTase); 4'-phosphopantetheinyl transferase ffp (Bacillus subtilis), Q9F4F7; Biochemical Sfp PPTase activity, qHTS; Potency, µM, inactives show max response, negative = inhibition, hits mostly inhibitors; 310,000 tested, 3.5% active; AID 1490, 2009; active = well fitted inhibition curve with a large enough effect; inconclusive = small, poorly fitted or top-dose-only effect, or another doubt; inactive = no such curve, though single readings can be large or run the other way;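 note: the enzyme is Sfp with the accession as filed and its product quenches rhodamine fluorescence; potency is the fitted concentration of half-maximal effect; 0% = enzyme reaction without inhibitor and -100% = no enzyme wells; top concentration of the series not given in the record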
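Reaction rates are the 30-min fluorescence difference (ex 525, em 598 nm) in wells containing 15 nM Sfp, 5 uM rhodamine-CoA and 12.5 uM BHQ-2-YbbR at pH 7.6 with 10 mM MgCl2.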
D2 agonist: Beta-Arrestin HTS for Positive Allosteric Modulators of the Human D2 Dopamine Receptor: Agonists. D(2) dopamine receptor (Homo sapiens), P14416. DiscoveRx PathHunter D2 beta-arrestin, luminescence, 90 min; 100% = 57 uM dopamine signal. activation, % (test concentration not listed). 360,000 tested, 0.084% active; in the data active = activation above about 40%; inconclusive = about 15% to 40%; inactive = below about 15%; note: compound concentration not given in the record; the text of the record calls up to 30% inactive
Target sequence (P14416 whole entry, looked up): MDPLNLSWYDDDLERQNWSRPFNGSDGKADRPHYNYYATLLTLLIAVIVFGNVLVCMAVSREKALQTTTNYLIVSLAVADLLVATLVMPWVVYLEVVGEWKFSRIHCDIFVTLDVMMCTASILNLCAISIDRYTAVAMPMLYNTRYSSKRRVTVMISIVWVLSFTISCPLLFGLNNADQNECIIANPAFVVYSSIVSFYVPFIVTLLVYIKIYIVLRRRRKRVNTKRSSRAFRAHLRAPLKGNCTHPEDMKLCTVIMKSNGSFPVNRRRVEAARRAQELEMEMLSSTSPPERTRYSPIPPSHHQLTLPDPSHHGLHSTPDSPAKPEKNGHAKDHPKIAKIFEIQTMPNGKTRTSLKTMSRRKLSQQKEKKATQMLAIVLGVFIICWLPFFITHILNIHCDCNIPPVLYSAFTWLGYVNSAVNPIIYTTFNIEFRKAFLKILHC
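Agonist mode: compounds alone added to overnight-plated D2 PathHunter cells for 90 min at 37 C, with 57 uM final dopamine (EC100) defining full response. Beta-arrestin recruitment detected by chemiluminescent reagent, read after 1 h at ambient temperature.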
PINK1 modulator: A Quantitative High throughput Screen to Identify Chemical Modulators of PINK1 Expression; AID 624263, 2012; 410,000 tested, 0.2% active; Potency, µM (highest dose often 76.6 µM), inactives show top-dose activation (PINK1 increase), usual class: activators; PINK1 immunofluorescence, high-content cytometry, 24 h; active = well fitted activation curve with a large enough effect; inconclusive = small, poorly fitted or top-dose-only effect; inactive = flat fitted curve, though single readings scatter; cell line not stated here;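 note: potency is the fitted concentration of half-maximal effect; % of control where 0% means no effect; nearly all actives have a fitted effect of over 65% in size; a mitochondrial uncoupler was the plate control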
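Readout is PINK1 immunofluorescence, quantified alongside mitochondrial, cell and nuclear markers by laser-scanning microplate cytometry. Cells from a stable line were exposed to compound titrations (5 concentrations) for 24 hours, with CCCP controls.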
Numbers without * were called inactive; ? = inconclusive; / = not tested or not shown; [ ] = remark or other dose.

SMILES	ClpP mod	gsp agonist	Menin MLL FP FL	gsp antagonist	Sfp inh	D2 agonist	PINK1 modulator
O=C(O)CC(CNS(=O)(=O)c1ccccc1)c1ccccc1 (stereo unspecified)	1.8%	31.5%	1.1	10.2%	24.7%	-1.1	-0.2%
O=C(Cc1ccc(S(=O)(=O)N2CCOCC2)s1)Nc1cc(Cl)ccc1Cl	/	-20.1%[15.4 µM]	/	-17.1%	/	3.8	0.5%
Cc1ccc(O)c(C(=O)C=Cc2ccccc2)c1	-6.3%	20.8%	/	-11.1%	/	-2.9	-7.2%
C=CCC(=O)NC1CCCc2c1cnn2-c1cc(F)cc(F)c1 (stereo unspecified)	/	0.3%	2.3	-7.5%	-0.2%	9.0	1.7%
O=S(=O)(c1ccc(Cl)nc1)N1CCCC1	0.0%	-27.8%	/	9.9%	/	-2.9	-0.8%
C=CCNC(=O)O/N=C/c1csc([N+](=O)[O-])c1	/	11.6%[15.4 µM]	1.9	-2.5%	0.5%	3.3	-0.9%
O=c1c2c3c(sc2n(CCN2CCCC2)c(=O)n1Cc1ccco1)CCCCC3	0.1%	7.2%	2.1	4.7%	12.3%	-0.4	0.3%
CC(=O)Nc1cccc(NC(=O)c2ccc3[nH]c(C)c(C)c3c2)c1	-1.1%	24.5%[15.4 µM]	8.2	-33.5%	20.5%	-3.8	2.0%
O=C(c1cc(Cl)ccc1[N+](=O)[O-])n1cnc2ccccc21	1.1%	11.9%	/	2.8%	-1.3%	0.5	7.0%
CN(C)CC(O)COc1cc2ccccc2cc1C(=O)N1CCCCC1 (stereo unspecified)	-5.0%	-27.4%	-0.8	2.5%	8.8%	-2.3	-3.6%
CC1CC(C)CN(CCCNC(=O)c2ccc3nc(N4CCOCC4)sc3c2)C1 (stereo unspecified)	?	-17.3%	2.1	7.5%	-11.1%	-3.6	0.4%
CS(=O)(=O)N1CCc2cc(C(=O)Nc3ccccc3)ccc21	-1.1%	-38.5%[inhibitor]	2.7	4.7%	17.7%	8.9	0.0%
O=C(O)/C=C/C(=O)NC1CC1	/	3.1%	-2.4	-0.8%	14.6%	3.1	1.8%
CCN(CC)CCOc1cccc(C(C)C)c1	-1.0%	16.2%	1.7	4.1%	-6.5%	3.0	-0.5%
CN(C)c1ccc(-c2ccnc3c2CC(C)(C(=O)NCc2ccccc2)O3)cc1 (stereo unspecified)	4.1%	/	/	/	/	-4.9	2.9%
C#CCSc1ncc(S(=O)(=O)c2ccccc2)c(=O)[nH]1	/	-13.9%	-0.2	9.6%	0.3%	5.8	-0.7%
O=C(CSc1nncs1)N1c2ccccc2Sc2ccccc21	-2.5%	-9.8%	-1.1	-18.3%	-1.7%	0.0	-0.6%[38.3 µM]
COc1cc(NC(=O)C2=CC(c3ccc(C)cc3)=NS(=O)(=O)N2C)cc(OC)c1OC	0.6%	-27.8%	-5.0	-12.6%	4.2%	1.2	2.8%
CCCCN(CCCC)Cc1cc(=O)oc2ccccc12	-2.1%	/	/	/	/	-5.0	2.5%
CCOc1ccc(NC(=S)NCC(c2cccnc2)N2CCOCC2)cc1 (stereo unspecified)	-0.7%	13.0%	-1.4	2.4%	9.5%	-6.9	-0.6%
OC[C@@H]1CN(CCN2CCOCC2)C[C@H](n2cnc3c(N4CCOCC4)ncnc32)O1	0.1%	/	/	/	/	4.4	1.7%
COc1ccc(-c2[nH][nH]c(=O)c2NC(=O)c2ccccn2)cc1	-4.3%	/	/	/	/	-5.5	-0.4%
O=c1c(CO)cc(CO)cc(CO)c1O	-5.1%	-1.0%	1.0	-2.0%	?	-5.3	-1.1%
CCc1ccc(CN2CCC(Oc3cc(C(=O)NC4CC4)ccc3OC)CC2)cc1	-3.0%	-42.0%	/	/	/	-4.2	0.0%
COc1cc(SC)ccc1C(=O)Nc1nccs1	/	-1.0%[15.4 µM]	-1.5	?	-4.5%	1.1	-0.8%
Cc1cc(O)c(C(=O)/C=C/c2ccc(C(C)C)cc2)c(=O)o1	-1.7%	-16.3%	-5.7	0.1%	4.4%	11.0	-1.1%
CCN(CC)C(=O)CSc1nc(O)cc(=O)n1CC	-0.9%	-8.5%	0.0	-15.1%	3.7%	1.3	?
COc1ccc(S(=O)(=O)N2CCN(C)CC2)cc1NC(=O)c1ccccc1	/	-42.8%[inhibitor]	-0.5	4.2%	12.8%	-4.0	-1.0%
O=C(NCCC1=CCCCC1)c1ccc(Cl)c([N+](=O)[O-])c1	-1.3%	3.2%[15.4 µM]	0.4	-16.3%	1.5%	3.1	11.9%
c1coc(Cn2c(SCc3nc4ccccc4[nH]3)nnc2-c2cnccn2)c1	-13.6%	-7.0%	-2.3	0.5%	-1.5%	-0.3	-0.6%
COc1ccc(C(=O)C2CCCN(C(=O)c3cc(C)nc(C)n3)C2)cc1OC (stereo unspecified)	/	4.3%	-3.1	5.2%	19.9%	3.7	-1.9%
COc1ccccc1C(=O)Nc1ccc(OCC(=O)N2CC(C)CC(C)C2)cc1 (stereo unspecified)	0.1%	7.3%	/	-16.0%	/	-1.5	-1.2%
CCCc1nnc(NC(=O)C2CC(=O)N(C3CCCC3)C2)s1 (stereo unspecified)	/	7.3%[15.4 µM]	0.2	3.0%	-19.4%	2.5	-0.3%
O=[N+]([O-])c1ccccc1S(=O)(=O)Nc1cccc(-c2ccc(N3CCCC3)nn2)c1	-2.4%	-8.1%[15.4 µM]	/	?	/	-2.9	3.7%
O=C(c1csnn1)N1CCC2(CC1)CN(Cc1cc(C(F)(F)F)cc(C(F)(F)F)c1)C2	/	/	-13.5	/	19.5%	/	-0.4%
CCOC(=O)N1CCN(CC(O)COC2CC(C)CCC2C(C)C)CC1 (stereo unspecified)	1.9%	-44.0%[inhibitor]	3.4	3.9%	12.6%	-0.8	6.9%
ON=C(CCc1ccccc1)CCc1ccccc1	-0.9%	-4.6%[15.4 µM]	/	0.1%	/	-1.7	3.8%
O=C(c1ccco1)N1CCN(C(=O)c2ccc(COc3ccc(F)cc3)o2)CC1	?	-82.1%[inhibitor]	0.5	-12.6%	-24.2%	-1.4	-0.9%
Cc1cnc(CNC(=O)CC2C(=O)NCCN2Cc2ccccc2F)cn1 (stereo unspecified)	-3.1%	18.6%	/	6.8%	?	-4.1	-1.1%
O=C(O)c1cc(S(=O)(=O)NCCN2CCNC2=O)ccc1O	3.7%	6.7%	/	-14.6%	2.0%	0.6	3.2%
CC(=O)C[C@@H](O)CC(=O)[C@H]1OC(=O)[C@@H](C)C/C=C\Cc2ccccc21	1.5%	/	/	-2.5%	/	-0.5	0.8%
CCN1CCN(C(=O)c2c(-c3c(F)cccc3Cl)noc2C)CC1	-1.5%	15.2%	-2.0	6.4%	-5.9%	-1.8	1.2%
CCCN1CCC(NC(=O)CCc2nnc(-c3ccccc3)o2)CC1	/	22.0%	-0.3	13.6%	17.5%	4.3	-0.7%
O=C1N/C(=N\c2ccccn2)SC1Cc1ccccc1Cl (stereo unspecified)	-3.9%	-1.0%	-0.3	-1.9%	10.4%	-2.6	5.2%
O=C(NN=C1CCN(Cc2ccccc2)CC1)c1ccccc1O	/	7.6%[15.4 µM]	-0.3	/	12.3%	0.7	-0.9%
Cc1ccccc1-n1c(SCC(=O)NC2CCS(=O)(=O)C2)nc2ccccc2c1=O (stereo unspecified)	-3.2%	22.6%	/	-7.1%	/	-6.8	0.5%
Cc1ccc2c(COC(=O)C3CSC4(C)CCC(=O)N34)cc(=O)oc2c1C (stereo unspecified)	-7.3%	16.4%	/	-16.3%	/	0.3	-1.7%
Cc1ccc(C(=O)NCC(=O)OC2CCCCC2=O)cc1C (stereo unspecified)	-1.6%	?	/	-2.3%	/	3.8	-3.5%
Cc1cccc(NC(=O)CNC(=O)Cn2ncc(Cl)c(Cl)c2=O)c1C	-2.7%	3.3%	/	-8.5%	/	-1.9	-5.6%
CC/C(=N\NC(=O)C1CCCC1)c1cccc(Br)c1	0.7%	17.8%	/	1.3%	8.2%	0.5	6.9%

Other records:
SMILES	ClpP mod	gsp agonist	Menin MLL FP FL	gsp antagonist	Sfp inh	D2 agonist	PINK1 modulator
Cc1ccc(S(=O)(=O)N2CCCCCC2)cc1C(=O)NCc1ccccn1	/	12.1%	3.4	0.4%	14.2%	-2.0	0.6%
OCCC1CN(Cc2cccc3c2OCO3)CCN1C1CCCC1 (stereo unspecified)	/	-17.3%	-0.5	4.8%	-5.7%	-0.9	-0.3%
O=C(Cc1csc(NC(=O)Nc2ccc(Cl)cc2)n1)NC1CCCC1	?	7.8%[15.4 µM]	/	-3.8%	/	1.5	23.2%
O=C(NC(NC(=S)Nc1c(Cl)cccc1Cl)C(Cl)(Cl)Cl)c1cccc([N+](=O)[O-])c1 (stereo unspecified)	-0.3%	-12.0%	/	35.5µM*	7.7%	-13.5	28.2µM*
O=c1[nH]cnc(O)c1Nc1cccc(Cl)c1	/	-37.5%[inhibitor]	/	1.7%	/	-3.0	-0.1%
CCOC(=O)N1CCN(C(=O)c2cc(COc3cccc(C(C)=O)c3)on2)CC1	-3.1%	4.4%[15.4 µM]	/	-3.9%	10.7%	0.3	0.2%
FC(F)(F)c1cccc(NC(=S)NCC(c2cccnc2)N2CCOCC2)c1 (stereo unspecified)	0.1%	-40.1%[inhibitor]	0.9	13.9%	-1.5%	-0.3	0.1%
O=C(Nc1ccc(Cl)c(S(=O)(=O)N2CCOCC2)c1)c1n[nH]c(=O)c2ccccc12	0.3%	1.6%	/	-2.0%	/	0.3	5.5%

Screening data as filed in PubChem BioAssay.

Rows were taken by chance (roughly 5.1% active in at least one column).
